# From PubChem BioAssay
# StopGo FLuc = lowers the firefly signal of an FMDV 2A StopGo reporter; HEK cells with a luciferase reporter of 2A StopGo recoding; Potency, µM (titrated, usually from 57.5 µM), for inactives: top-dose signal change, negative = less light; 120,000 tested, 0.23% active; active = well fitted falling curve with a large enough effect; inconclusive = small, poorly fitted or top-dose-only effect; inactive = no such curve, though single readings can be large or run the other way; also: nearly all actives have a fitted effect of over 60% in size; overnight with compound
# 2A Renilla = lowers the Renilla signal of an FMDV 2A StopGo reporter | HEK cells with a luciferase reporter of 2A StopGo recoding | Potency, µM (highest dose often 57.5 µM), for the others: at the top dose signal change, negative = less light | 120,000 tested, 0.32% active; active means well fitted falling curve with a large enough effect; inconclusive means small, poorly fitted or top-dose-only effect; inactive means no such curve, though single readings can be large or run the other way; also: nearly all actives have a fitted effect of over 55% in size; overnight with compound
# * = called active by the depositor; ? = inconclusive; & = joins results of further samples; [ ] = remark or other dose. % is scaled to controls: 0 for no effect and ±100 for the full control effect; potency is read from the fitted curve at half-maximal effect. A portion of the library (hit frequency here may not be typical).
mol	StopGo FLuc	2A Renilla
CCN(CC)c1ccc(NC(=O)c2sc3nc4c(cc3c2N)CN(C)CC4)cc1	23%	4%
O=C(Nc1ccccc1)N(Cc1cccs1)c1ccc(F)cc1	-10%	1%
Cc1ccc(C)c(N2CCN(C(=O)c3cccc(-n4c(C)nc5cccnc54)c3)CC2)c1	-21%	-19%
O=C(NCCc1ccc(F)cc1)C(=O)NCC(c1ccc2c(c1)OCO2)N1CCOCC1 (configuration not stated)	-22%	-13%
COc1ccc(C(=O)NCc2ccc3c(c2)CCN3C(=O)c2ccc(Cl)cc2)c(OC)c1	-13%	-3%
Cc1c(-c2ccccc2)oc2c(C(=O)NCc3ccccc3CN(C)C)cccc2c1=O	-13%	-14%
Cc1ccc(S(=O)(=O)Nc2nc3ccccc3nc2Nc2ccc(C(=O)O)cc2)c(C)c1	0%	-3%
CC1CC(NC(=O)CCCC(=O)O)CC(C)(C)C1 (configuration not stated)	4%	-2%
CCN(Cc1ccc(OC)cc1)c1ccc(-c2nc(-c3ccncc3)no2)cc1[N+](=O)[O-]	142%[activator]	1%
CCn1ccc2cc(S(=O)(=O)N3CCC(C(=O)NCCCOC(C)C)CC3)ccc21	11%	19%

# Complete entries from above. Order of values: StopGo FLuc | 2A Renilla
# Cc1ccc(S(=O)(=O)Nc2nc3ccccc3nc2Nc2ccc(C(=O)O)cc2)c(C)c1 is entered as 0% | -3%
# CCN(Cc1ccc(OC)cc1)c1ccc(-c2nc(-c3ccncc3)no2)cc1[N+](=O)[O-] is entered as 142%[activator] | 1%
# Cc1c(-c2ccccc2)oc2c(C(=O)NCc3ccccc3CN(C)C)cccc2c1=O is entered as -13% | -14%

# Continuation.
mol	StopGo FLuc	2A Renilla
COc1cc(-c2nnc3sc(COc4ccc(C(C)(C)C)cc4)nn23)cc(OC)c1OC	153%[activator]	-7%
Cc1cc(=O)n(Cc2cccc(Cl)c2)c2c1c(C)nn2C	-11%	-11%
O=C(OCc1cccc([N+](=O)[O-])c1)c1c2c(nc3ccccc13)CCCCC2	5%	-8%[1.06 µM]
CN1C(=O)C2(CC(=O)Nc3[nH]ncc32)c2ccccc21 (configuration not stated)	-11%	-6%
CCOC(=O)c1cnc2cc(C(F)(F)F)ccc2c1N1CCN(c2ccc(F)cc2)CC1	19%	10%
COC(=O)c1c(C)oc2ccc(N(C(=O)c3ccncc3)S(=O)(=O)c3ccc(Br)cc3)cc12	?	0%
COc1ccc(OC)c(CNC(=O)c2cc3c(-c4ccc(OC)c(OC)c4)nn(C)c3s2)c1	33%[activator]	38%[activator]
CSc1nn(CC(=O)Nc2ccccc2F)c(N)c1S(=O)(=O)c1ccccc1	-17%	44%[activator]
CCCCCCCCC(=O)NCc1ccc(O)c(OC)c1	7%[11.5 µM]	-9%
CC/C(C)=C(/C#N)C(=O)NC1CCCCC1	19%	8%
CN(C)c1ccc(C(CNC(=O)c2ccc(C(C)(C)C)cc2)N2CCCC2)cc1 (configuration not stated)	-18%	-1%
CCC(C)Oc1ccc(C2CC(=O)NC3=C2C(=O)CC(C)(C)C3)cc1 (configuration not stated)	16%	18%
Cc1ccc2c(CC(=O)Nc3c(C(=O)c4ccc(F)cc4)oc4ccccc34)coc2c1C	-4%	-4%
COc1cc(OC)c2c(C)c(CC(=O)Nc3cccc(Cl)c3)c(=O)oc2c1	7%	-3%
c1ccc(-c2noc(CNC3CCCCC3)n2)cc1	229%[activator]	16%
Cc1oc2ncnc(N3CCCCC3)c2c1C(=O)Nc1cccc(F)c1	-9%	-6%
CN(c1ncnc2scc(-c3ccc(Cl)cc3)c12)C1CC1	?	?
CCOC(=O)C1=C(C)Oc2ncn3nc(-c4ccccc4O)nc3c2C1c1ccc(OC)c(OC)c1 (configuration not stated)	48%[activator]	-21%
O=C(NN=C1CCCCC1)c1sc2ccccc2c1Cl	25%	-2%
CCOc1ccc(CCNC(=O)c2cc3c(=O)n(C)c4ccccc4c3n2C)cc1OCC	50%[activator]	17%
O=C(Cn1c(=O)c2sccc2n(CC(=O)N2CCCC2)c1=O)Nc1ccc(F)cc1	9%	-10%
Cc1ccc(C)c(CSc2c(C(C)C)cnc3c2c(=O)n(C)c(=O)n3C)c1	7%	47%[activator]
O=C(O)CCc1ccc(S(=O)(=O)Nc2cccc(S(=O)(=O)N3CCCCC3)c2)cc1	3%	23%
O=C(c1ccc2c(c1)N(Cc1ccc(Cl)cc1)C(=O)c1ccccc1S2(=O)=O)N1CCN(c2ccccn2)CC1	-13%	5%
COc1ccc(C2CCCN2CC(=O)N(C)Cc2ccc(C)cc2)cc1 (configuration not stated)	-10%	-5%
CC(C)CC(=O)Nc1cccc(C(=O)Nc2ccc(C(=O)O)cc2)c1	-7%	0%
CCc1ccccc1NC(=O)c1sc(-n2nc(C)c(Cc3ccccc3)c2C)nc1C	-11%	-13%
Cc1ccc(N2C(=O)CC(c3c[nH]c4ccccc34)C2=O)cc1 (configuration not stated)	34%[activator]	-15%
Cc1ccccc1Nc1c(-c2ccc(N3CCOCC3)cc2)nc2ccccn12	100%[activator]	-9%
CCCn1nc(C(=O)N(CCOC)Cc2cccs2)c2ccccc2c1=O	-13%	16%
Cc1cccc(OCCN(C)C(=O)COc2ccc3c(C)cc(=O)oc3c2)c1	-10%	-7%
O=C1CC2CS(=O)(=O)CC2N1c1ccc(N2CCOCC2)cc1 (configuration not stated)	-6%	5%
CCCCCCn1c(NCCO)nc2c1c(=O)n(C)c(=O)n2C	?	?
COc1ccccc1CNc1nc2c(S(=O)(=O)c3ccc(C)c(C)c3)nnn2c2ccc(Cl)cc12	-7%	4%
COc1cccc(NC(=O)N2CCC(CN3CCOCC3)CC2)c1	-6%	-11%
Cc1ccc(NC(=O)Cn2c(=O)n(CCCS(=O)(=O)C3CCCCC3)c(=O)c3ccccc32)cc1F	-7%	-2%
CCOc1ccc(NC(=O)CCS(=O)(=O)c2cccc3nonc23)cc1	-8%	2%
CCNC(=O)c1cc(-c2ccc(OC)cc2OC)nc2ccccc12	-2%	-4%
COc1ccc(-n2c(=O)c3c(c4cc(OC)ccc4n3C)n(Cc3cc(C)ccc3C)c2=O)cc1	-13%	-5%
CC(C)CC(=O)Nc1nc2c(s1)CC(C(C)(C)C)CC2 (configuration not stated)	189%[activator]	39%[activator]
CCCSc1nc(N)c2c3c(sc2n1)CCCC3C (configuration not stated)	187%[activator]	8%
NS(=O)(=O)c1ccc(C(=O)O)cc1	-13%[11.5 µM]	-5%
CC(OC(=O)c1nn(C)c(=O)c2ccccc12)c1ccccc1 (configuration not stated)	21%	6%
Cc1cccc(CN2CCC(CNC(=O)c3cnc(N4CCOCC4)c4ccccc34)CC2)c1	-13%	16%
Cn1c(CNC(=O)C(Cc2ccccc2)NC(=O)Cc2ccc(Cl)cc2)cc(=O)n(C)c1=O (configuration not stated)	1%	4%
COc1ccc2cc(C(=O)N3CCN(c4ccccc4O)CC3)c(C)nc2c1	2%	-4%
CSc1cccc(-n2nnc(-c3nsc(NC(=O)c4cccs4)n3)c2C)c1	122%[activator]	3%
COc1ccc(C2CCCN2C(=O)NCCn2ccnc2)c(OC)c1 (configuration not stated)	-6%	-14%
CCOc1cccc(/C=C(/C#N)c2ccc(C(F)(F)F)cn2)c1	0%	0%
Cc1cc(C(=O)COC(=O)c2nccnc2N)c(C)n1CC(F)(F)F	120%[activator]	-10%

# New compounds follow.
mol	StopGo FLuc	2A Renilla
O=C(CSc1nc(=O)n(Cc2ccco2)c2c1CCC2)NCc1ccc(Cl)cc1	-6%	54%[activator]
O=S(c1cc(Cl)cc(Cl)c1O)c1cc(Cl)cc(Cl)c1O	-15%	7%&-3%
Nc1ccc([N+](=O)[O-])c2ncccc12	6%	-4%
O=C(Cc1coc2cc3c(cc12)CCC3)OCCOc1ccccc1	12%	8%
CCN(CC(=O)N1c2ccccc2OCC1c1ccccc1)Cc1nc2cc(Cl)ccc2c(=O)[nH]1 (configuration not stated)	11%	14%
COC(=O)C1=C(C)N(C(C)C)C(=O)C1(NC(=O)c1ccccc1OC)C(F)(F)F (configuration not stated)	-17%	-2%
O=C(Cc1n[nH]c(=O)c2ccccc12)Nc1ccccc1	13%	-8%
FC(F)(F)c1cc(N=Cc2ccc(-c3ccccc3)cc2)cc(C(F)(F)F)c1	34%[activator]	0%
N#CCc1ccc(NC(=O)CCSc2ccc(Cl)cc2)cc1	69%[activator]	20%
CCCCCCn1nc(C(=O)OCn2nnc3ccccc3c2=O)c2ccccc2c1=O	-9%	-6%
CCN(Cc1ccccc1)C(=O)C1CCN(c2nc3ccccc3o2)CC1	-13%	-19%
CCn1cc(C(=O)N2CCN(c3ccccc3F)CC2)c(=O)c2cc(S(=O)(=O)N(C)C)ccc21	-8%	-5%
CCOc1ccc(CNC(=O)c2ccc3oc(=O)n(Cc4ccccc4)c3c2)cc1	-16%	11%
O=C(Nc1cccc2c1CCCC2)c1cc(Cl)nc(Cl)c1	11%	8%
O=C(COc1ccccc1F)Nc1ccc2nc(SCCOc3ccccc3)sc2c1	-10%	-15%
Cc1cccc(C(C)C)c1NC(=O)C1CCCC1	-1%	-8%[1.06 µM]
CC(C)(C)c1cc(CSc2nc3ccccc3s2)cc(C(C)(C)C)c1O	-4%	19%
Cc1cc(=O)oc2c1ccc1oc(/C(=N/O)c3ccccc3)c(-c3ccccc3)c12	?	?
COc1ccc(C(=O)NNC(=O)COCC(=O)Nc2ccc(C#N)cc2)cc1	49%[activator]	3%
Cc1ccc(-c2c(C(=O)NCc3ccccc3)oc(=O)c3ccccc23)cc1	-9%	-2%
Cc1ccc(CSc2nc3ccsc3c(=O)n2CCC(C)C)cc1	-17%	-4%
COC(=O)c1ccc(Oc2coc3cc(OC(=O)N4CCOCC4)ccc3c2=O)cc1	2%	-7%
O=C(O)C1(c2cccc(Cl)c2)CC1	19%	7%
Cn1c(SCc2nc3ccccc3o2)nnc1-c1ccccc1	75%[activator]	-4%
COc1cc(NS(=O)(=O)c2ccc(NC(=O)COc3ccc(Cl)cc3Cl)cc2)nc(OC)n1	18%	0%
COc1ccc(OC)c(C2CC(=O)N(c3ccccc3)C3=C2C(=O)OC3)c1 (configuration not stated)	7%	1%
Cc1cc(C)c(OCCOCCn2c(-c3ccc(Cl)cc3)nc3ccccc3c2=O)c(C)c1	0%	-18%
Cc1ccc(N(CC(=O)NCCN2CCOCC2)S(=O)(=O)c2ccc(Cl)cc2)cc1C	-5%	1%
CCN(CC)CCNC(=O)c1ccc2ccccc2n1	-7%	-15%
CC(C)(C)c1ccc(C(=O)Nc2c(F)cccc2F)cc1	218%[activator]	12%
CCSc1nc2c(c(=O)[nH]c(=O)n2C)n1CC(O)COc1ccc(Cl)cc1 (configuration not stated)	51%&-10%[activator]	30%&-8%
Cc1ccc(C)c(/C(O)=C2\C(=O)C(=O)N(c3nnc(C)s3)C2c2ccc(C(C)C)cc2)c1 (configuration not stated)	85%[activator]	16%
CCOC(=O)CNC(=O)Nc1cc(C(=O)NCc2ccc(C)cc2)ccc1N1CCCC1	-6%	-9%
CCC(C(=O)Nc1ccc(C)c(Cl)c1)n1c(=O)c(-c2ccccc2NC(C)=O)nc2ccccc21 (configuration not stated)	-14%	?
Cc1ccc(NC(=O)c2cnc(N3CCCCC3)c3ccccc23)cc1F	6%	5%
CCc1c(C)sc2c1CCN(C(=O)Nc1cc(C)cc(C)c1)C2c1ccccc1 (configuration not stated)	-12%	-7%
Cc1ccc(Cl)cc1NC(=O)Cn1nc(C(=O)O)c2ccccc2c1=O	-9%	-21%
CCC(C)(C)NC(=O)CSc1nc(C)c(C)n1C1CCCCC1	9%	10%
CCNc1c(NS(=O)(=O)c2ccc(OCC)cc2)c(=O)oc2ccccc12	24%	8%
CCOc1cc(C(=O)N2N=C(C)CC2(O)C(F)(F)F)ccc1OC(F)F (configuration not stated)	9%	-1%
Cc1nn(-c2nc3c(c(=O)n(C)c(=O)n3C)n2C/C=C/c2ccccc2)c(C)c1C	12%	7%
CCOC(=O)COc1ccc2c(C)c(Cc3ccccc3)c(=O)oc2c1C	6%	-6%
CCn1c(=O)c2cc(C(=O)NCCCN(C)Cc3ccccc3)sc2c2ccccc21	15%	8%
CCc1cccc(C)c1NC(=O)C1CCN(S(=O)(=O)Cc2ccccc2)CC1	-3%	-9%
COc1ccc2c(c1)-c1nc(NC(=O)c3ccc(OC)c(Br)c3)sc1CC2	5%	9%
Cn1nc(C(=O)OCc2nc(N)nc(Nc3ccc(Cl)cc3)n2)c2ccccc2c1=O	83%[activator]	22%
Cc1cc(SCC(=O)NCc2ccccc2Cl)nc(=O)[nH]1	-6%	-6%
COc1ccc(-c2nc3ccccc3s2)cc1NC(=O)c1ccccc1OC	117%[activator]	-6%
CCNC(=O)Cn1nc(C2CC2)c2c(C(=O)OC)cc(C3CC3)nc21	5%	-5%
COc1ccc(CCNC(=O)c2cc(=O)c3cc(Cl)ccc3o2)cc1OC	?	?
CCOC(=O)c1ccc(NC(=O)CCc2c(C)nc3nc[nH]n3c2=O)cc1	-17%	-13%
Cc1cc(Br)cc(C)c1NC(=O)c1sc2ncn(Cc3cccc(F)c3)c(=O)c2c1C	-11%	-12%
CCOc1ccc(CN(CC)Cc2cc(=O)oc3ccc(C)cc23)cc1	?	?
